From PubChem
Calb biofilm kill: mixture kills Candida albicans biofilm cells. C. albicans biofilm persisters + clotrimazole, fluorescence viability; primary screen in compound mixtures of four per well. inhibition, % at 7.6 µM. 0.02% of 120,000 active;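 active means inhibition above 30.3% in the primary screen of four-compound pools, then above 30% when the compound was retested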;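 further: compounds exposed to preformed 24 h biofilms for 48 h; the number belongs to the whole pool; some results filed as inactive read as strong as hits; inactives centre near 12; 0% = biofilm with clotrimazole alone and 100% = kill control; retested singly at about 60 µM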
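System: C. albicans CAF4-2 wild-type biofilms; Medium: RPMI/MOPS medium, pH 7.0; Reagent: Clotrimazole, 50 µg/mL; Times: biofilm formation 24 h, compound exposure 48 h, 37 °C; Detection: 2-h Alamar Blue fluorescence, 535/590 nm excitation/emission; Evaluation: percent inhibition of biofilm viability.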
Active calls of the source: *. Not all compounds are listed; the hit share may differ from the screen's.

Structure | Calb biofilm kill
O=C(CCC(=O)Nc1ccccc1Cl)N/N=C/c1ccccc1 | 13
Cc1cc(=O)n2[nH]cc(C(=O)O)c2n1 | 8
O=C(NCC1CCCO1)c1cc(C(=O)c2ccc(Cl)cc2Cl)c[nH]1 (stereo not given) | 19
Cn1nccc1C(=O)N1CCCC(C(=O)c2cccc3ccccc23)C1 (stereo not given) | 10
COC(C[C@H](O)CC(=O)[C@H](C)OCc1ccccc1)OC | 19
CC1c2c([nH]c3ccccc23)CCC1C(=O)O (stereo not given) | 13
COc1ccc(CNC(=S)Nc2cc(OC)ccc2OC)cc1 | 8
COc1cc2nc(NC(=O)c3ccco3)sc(=O)c2cc1OC | 14
COC(=O)c1sc2nc(CN3CCN(c4ccc(OC)cc4)CC3)[nH]c(=O)c2c1C | -9
COc1ccc(C(=O)CSc2nc3[nH]ncc3c(=O)[nH]2)cc1 | 20
COc1ccc(NC(=O)/C(=C/c2ccc(OC(C)=O)c(OC)c2)NC(C)=O)cc1 | 14
CC(C)OC(=O)c1cc2c(ccn2C)n1CC(=O)N(Cc1ccccc1)c1ccccc1 | 9
O=C(c1cccs1)N1CCN=C1SCc1ccccc1F | 3
CCOC(=O)CN(c1cc([N+](=O)[O-])ccc1OC)S(C)(=O)=O | 10
O=C1Nc2ccccc2C1(O)C/C(=N/O)c1ccccc1 (stereo not given) | 9
COCCNC(=O)c1ccc(-n2c(SCc3ccncc3)nc3ccccc3c2=O)cc1 | 18
O=C(Nc1cccc2c1C(=O)NC2=O)c1ccccc1[N+](=O)[O-] | 20
COc1ccc([N+](=O)[O-])cc1NC(=O)CCSCCc1ccccn1 | -3
Cc1ccc(NC(=S)N(C)N)cc1Cl | 12
COc1ccc(C)c2sc(NNC(=O)COc3ccccc3)nc12 | 6
Cc1cc(C)cc(OCC(=O)N/N=C/c2ccccn2)c1 | 25
Cc1nn(-c2ccc(F)cc2)c(C)c1CN1CCN(CCC(C)C)C(CCO)C1 (stereo not given) | 13
CCOC(=O)c1sc2nc(SCC(=O)N(CC)CC)n(CCCN3CCCC3=O)c(=O)c2c1C | 10
O=C(O)CNC(=O)c1ccc(N2CCOCC2)cc1[N+](=O)[O-] | 18
COc1ccc(C(=O)OCCc2ccc(O)cc2)cc1 | 19
CN(c1ccc(O)cc1)c1nc(-c2ccccc2)cs1 | 11
CCCCCCN1C2=NCCCN2c2ccccc21 | 0
CCN1CCCC1CNC(=O)C1CCN(C(=O)c2cc3sccc3n2Cc2ccc(F)cc2)CC1 (stereo not given) | 10
CSCCC(NC(=O)c1cc([N+](=O)[O-])cc([N+](=O)[O-])c1)c1nc2ccccc2[nH]1 (stereo not given) | 2
Cc1nnc(NC(=O)CSc2nc3c(c(=O)n(C)c(=O)n3C)n2C(C)C)s1 | 2
Cc1cccc(N(Cc2cc3ccc(C)cc3[nH]c2=O)C(=O)c2ccco2)c1 | 25
COCC(C)N=C1NN=C(c2ccc(NC(C)=O)cc2)CS1 (stereo not given) | 10
O=C(Nc1ccc2nc(-c3ccco3)c(-c3ccco3)nc2c1)N1CCN(c2ccccn2)CC1 | 20
O=C(NCCc1ccccc1)c1n[nH]c2ccccc12 | 1
Brc1cccc(-c2cnco2)c1 | 14
Cc1c(/C=N/NC(N)=O)c2ccccn2c1C(=O)c1ccc(F)cc1 | 11
O=C(O)C(O)c1ccco1 (stereo not given) | 5
COc1ccc(N(C)S(=O)(=O)c2cccc(C(=O)OC(C(=O)Nc3cc(C)cc(C)c3)c3ccccc3)c2)cc1 (stereo not given) | 9
CC(C)(C)OC(=O)C1C(=O)CC(C)(O)C(C(=O)OC(C)(C)C)C1c1ccco1 (stereo not given) | 7
CC(=O)Nc1ccccc1NC(=O)c1ccc(C)c(C)c1 | -6
COc1ccc(-n2nnc3c(SCC(=O)Nc4ccccc4F)ncnc32)cc1 | 10
CCCS(=O)(=O)c1nc(S(=O)(=O)c2ccc(C)cc2)c(N2CCc3ccccc3C2)s1 | 9
CN(c1cccc(NC(=O)CN(c2ccc(F)cc2)S(C)(=O)=O)c1)S(C)(=O)=O | -10
Nc1nc(SC2c3cccc4cccc(c34)C2NS(=O)(=O)c2ccccc2)n[nH]1 (stereo not given) | 12
O=C(COC(=O)c1ccc(Cl)c(S(=O)(=O)N2CCCCC2)c1)NCc1ccco1 | 8
CCNC(=S)Nc1ccc(C)c(S(=O)(=O)Nc2ccccc2OC)c1 | 9
c1ccc(CN2CCCC3(CCCN(Cc4nc(COc5ccccc5)no4)C3)C2)cc1 (stereo not given) | 25
COc1ccc(Cl)cc1C(=O)NNC(=S)NC1CCCCC1 | 27
O=C(CCC(=O)N1CCN(S(=O)(=O)c2ccc3ccccc3c2)CC1)Nc1cc(Cl)cc(Cl)c1 | 14
COc1ccc(CCNC(=O)c2cc(C(=O)c3cc(Cl)ccc3O)cn(CCc3ccc(OC)cc3)c2=O)cc1 | 17
O=C(Cn1nnc(N2CCCC2)n1)N/N=C/c1ccc(Cl)cc1 | 13
c1ccc(CNc2nc(N3CCN(Cc4ccccc4)CC3)nc3ccccc23)cc1 | 3
Cc1cc(C(=O)NC(C)C2CCCO2)no1 (stereo not given) | 17
COc1ccc2c(c1)c(=O)c(C(=O)O)c(-c1ccc3c(c1)OCO3)n2C | 13
O=C(N/N=C/c1ccc(O)cc1)c1[nH]c2ccc(Br)cc2c1-c1ccccc1 | 7
CCc1ccc(OCC(=O)NC(C)(C)C)cc1 | 12
COc1cc(/C=N/NC(=O)COc2ccc(C)cc2)ccc1OC(=O)c1cccs1 | 2
O=C(/C=C/c1cccc([N+](=O)[O-])c1)Nn1c(-c2ccccc2F)nc2ccccc2c1=O | 16
COc1ccc(CNC(=O)COC(=O)c2ccccn2)cc1 | 18
Cc1ccc(/C=C(\C#N)C(=O)N2CCCC2)c(C)c1 | 0

Going on with the list.
Structure | Calb biofilm kill
CC(=O)N1N=C(c2cccs2)CC1c1ccco1 (stereo not given) | 9
O=C(NCCO)C(=O)c1c(-c2ccc(Cl)cc2)cc2ccccn12 | 9
Cc1c(N=NC2=C(O)CCCC2=O)c(=O)n(-c2ccccc2)n1C | 21
O=C(Cc1ccc(F)cc1)N/N=C/c1ccc2c(c1)OCO2 | -23
OC(COc1ccc2c(c1)OCO2)CN1CCN(c2ccccc2)CC1 (stereo not given) | 17
CC(NCc1ccccc1OC1CCCC1)c1ccccc1 (stereo not given) | 18
Cc1ccsc1C(=O)OCC(=O)N1CCN(C(=O)c2ccco2)CC1 | 4
O=C1CCCC(=O)N1c1ccc(N2CCN(c3ccccc3)CC2)c([N+](=O)[O-])c1 | 11
CCS(=O)(=O)c1ccc(C(=O)NC2CC2)c(Cl)c1Cl | 7
Cc1cccc(C2c3[nH]c4ccccc4c3CCN2C(=O)Cc2nc(-c3ccccc3)n[nH]2)n1 (stereo not given) | 11
CC(=O)C(=Cc1ccc(C(=O)O)cc1)C(C)=O | 2
COc1ccc(OC)c2[nH]c(=O)c(CCNC(=O)c3ccc4c(c3)OCO4)cc12 | 14
CC(C)CCn1c(-c2nonc2N)nc2ccccc21 | 13
CC(C)CNS(=O)(=O)c1ccc(CCC(=O)NCc2ccncc2)cc1 | 27
COc1ccc(NC(C(=O)Nc2cccc(C(C)=O)c2)c2ccccc2)cc1 (stereo not given) | -7
CCOc1cc(C=O)ccc1OCC(N)=O | -4
COc1cc(/C=C2\SC(=S)N(NC(=O)c3ccncc3)C2=O)ccc1O | 15
Cn1c(SCCC(=O)O)nnc1-c1ccncc1 | 9
Cc1cc(C)cc(Nc2nc3c([nH]2)c(=O)n(C)c(=O)n3C)c1 | 10
CSCC[C@H](NC(=O)COc1ccc(Cl)cc1Cl)c1nc2ccccc2[nH]1 | 13
O=S(=O)(c1ccc(Br)cc1)N1CCOC12CCCCC2 | 8
O=C(COC(=O)CCN1C(=O)/C(=C\C=C\c2ccccc2)SC1=S)Nc1ccc(Br)cc1 | 14
CCC(c1nnnn1Cc1ccccc1)N1CCN(c2ccc(OC)cc2)CC1 (stereo not given) | -4
CC(C)Nc1nc2cccnc2s1 | 24
Cc1ccc(S(=O)(=O)N2CCOCC2)cc1NC(=O)CNCc1ccccn1 | 18
O=C(NCc1ccco1)c1nn2cccnc2c1Cl | 6
COc1cc(/C=N/NC(=O)CN(Cc2ccccc2)S(=O)(=O)c2ccc3c(c2)OCCO3)ccc1O | 17
CC(NC(N)=O)C(=O)NCC(=O)OCc1ccccc1 (stereo not given) | -5
CN(C(=O)COC(=O)c1ccc(S(=O)(=O)N2CCCC2)cc1)c1ccccc1 | 4
Cc1ccc(C2=NOC(=O)/C2=C\C=C\c2ccccc2)cc1 | -1
COc1ccc(C(C)C)cc1S(=O)(=O)N1CC(C)OC(C)C1 (stereo not given) | 6
O=C(O)c1ccc2c(c1Sc1ccccc1)C(=O)c1ccccc1C2=O | 14
Cn1c(C(=O)O)c(CC(=O)N2CCC(Cc3ccccc3)CC2)c2ccccc21 | 20
Cc1nn(C(=O)/C(C#N)=C/N(C)C)c(C)c1C | 10
C/C(=C\C(=S)Nc1ccccc1)Nc1ccc2ccccc2c1 | 24
COC(=O)NNC(=O)COc1cc(C)ccc1C | -9
CCOc1ccc(Nc2nc(NCc3ccco3)nc(N)c2[N+](=O)[O-])cc1 | -5
COc1ccc(C(=S)N2CCN(c3cccc(Cl)c3)CC2)c(OC)c1 | 2
O=C(O)COc1ccc(/C=N/NC(=O)Cc2ccc(Cl)cc2)cc1 | 12
COc1ccc(N2CC(C(=O)NCc3ccco3)CC2=O)cc1 (stereo not given) | -3

Additional results:
| Structure | Calb biofilm kill |
| --- | --- |
| Cn1nc(NC(=O)C(F)(F)F)c2ncc(-c3ccc(Cl)cc3)nc21 | 29 |
| CCC(=O)Nc1nc(C)c(-c2csc(Nc3ccccn3)n2)s1 | -3 |
| O=c1[nH]c2cc(NCCO)c([N+](=O)[O-])cc2[nH]1 | 9 |
| O=C(NC1=NCCS1)c1cc(-c2cccs2)nc2ccccc12 | 15 |
| NS(=O)(=O)c1ccc(CNC(=O)/C=C/c2c(F)cccc2Cl)cc1 | 2 |
| CCC(/C=N/NC(=O)C1COc2ccccc2O1)CC (stereo not given) | 31 |
| CCOC(=O)c1cc(C#N)c(SCC(N)=O)[nH]c1=O | 5 |
| COC(=O)c1ccc(NC(=O)CN2CCN(c3ccccc3C)CC2)cc1 | 13 |
| COc1cc(C)c(NC(=S)Nc2ccc(Cl)c(Cl)c2)cc1OC | 5 |
| CN(C)c1cccc(C(=O)OCCNC(=O)c2cccc(S(=O)(=O)N3CCOCC3)c2)c1 | 24 |
| O=C(COc1cccnc1[N+](=O)[O-])Nc1ccc2c(c1)OC(F)(F)O2 | 7 |
| CC(=O)N/C(=C/c1ccc(OC(F)F)cc1)C(=O)O | 9 |
| CC(NC(=O)c1sc2ccccc2c1Cl)C1CCCO1 (stereo not given) | 13 |
| CC(C)(C)C(=O)CSc1nc(N)cc(=O)[nH]1 | 14 |
| CCC(CC)C(=O)Nc1cc(Cl)ccc1C | 17 |
| Cc1ccccc1NC(=O)CN1C(=O)C2C3CC(C(Br)C3Br)C2C1=O (stereo not given) | 16 |
| CCOc1cc(Cl)c(NC(=O)c2ccco2)cc1OCC | 14 |
| O=C(Nc1ccc(F)cc1)Nc1ccccc1F | 15 |
| COc1ccc(NC(=S)Nc2ccc(C)c(Cl)c2)cc1OC | -6 |
| c1ccc(-c2ccc(-c3[nH]ncc3CN3CCC(N4CCSCC4)CC3)cc2)cc1 | 22 |
| O=C1Nc2ccc([N+](=O)[O-])cc2OC1CCN1CCCC1 (stereo not given) | 15 |
| CN1c2ccccc2C2(C)CCCC3=Cc4cccc([N+](=O)[O-])c4OC312 (stereo not given) | -9 |
| O=C(O)CN(c1ccccc1[N+](=O)[O-])S(=O)(=O)c1ccccc1 | 0 |
| O=S(=O)([O-])CCC[n+]1c(SCCCS(=O)(=O)O)sc2ccc(Cl)cc21 | 11 |
| Cc1cn(-c2ccccc2)c(C)c1/C=N\Nc1nc(N2CCOCC2)nc(N2CCOCC2)n1 | 29 |
| Cc1nn(Cc2ccccc2)c(=O)c2nn(-c3ccc(Cl)cc3)c(C)c12 | 15 |
| COCCn1c(-c2ccc(Cl)cc2Cl)nc2c(c(=O)c3ccccc3n2C)c1=O | 4 |
| Cn1cnnc1Sc1ccc(C(=O)OCC(=O)NCC(F)(F)F)cc1[N+](=O)[O-] | 7 |
| CSc1ccccc1NC(=O)CSc1n[nH]c(N)n1 | 5 |
| Cc1cc(C)n(CC2CC(=O)N(c3ccc(C)c(Cl)c3)C2=O)n1 (stereo not given) | 22 |
| O=C(O)C1CCCN1C(=O)OCC1c2ccccc2-c2ccccc21 (stereo not given) | 1 |
